VDR inhibitor: inhibitors of human vitamin D receptor; VDR-SRC2-3 peptide fluorescence polarization, 2 h; P11473; actives 0.93% (n = 400,000); Potency, µM, for inactives: max response, negative = inhibition, most hits filed as inhibitors; active = well fitted inhibition curve with a large enough effect; inconclusive = small, poorly fitted or top-dose-only effect, or another doubt; inactive = no such curve, though single readings can be large or run the other way; also: series mostly up to about 120 µM
Target sequence (P11473 whole entry, looked up): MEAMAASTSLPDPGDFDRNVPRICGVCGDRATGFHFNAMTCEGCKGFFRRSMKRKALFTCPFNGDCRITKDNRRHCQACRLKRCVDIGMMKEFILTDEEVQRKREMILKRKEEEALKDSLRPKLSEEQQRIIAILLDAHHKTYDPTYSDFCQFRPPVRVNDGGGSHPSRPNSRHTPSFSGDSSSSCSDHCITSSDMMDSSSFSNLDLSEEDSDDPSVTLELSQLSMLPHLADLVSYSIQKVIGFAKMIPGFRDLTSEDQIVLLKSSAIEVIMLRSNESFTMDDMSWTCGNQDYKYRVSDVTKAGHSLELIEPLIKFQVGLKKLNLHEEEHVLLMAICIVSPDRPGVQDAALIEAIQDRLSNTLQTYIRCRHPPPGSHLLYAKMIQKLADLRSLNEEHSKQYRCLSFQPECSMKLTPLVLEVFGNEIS
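After 23 nl compound addition and a short centrifugation, plates sat for 2 hours at ambient temperature; polarization of fluorescence then indicated loss of VDR binding to peptide SRC2-3.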
* = called active by the depositor; ? = inconclusive; & = joins results of further samples; ! = not confirmed by another sample. % is scaled to controls: 0 for no effect and ±100 for the full control effect; potency is read from the fitted curve at half-maximal effect.

SMILES	VDR inhibitor
Cc1cc(C)cc(NC(=O)C(=S)NCc2ccccc2)c1	-2.3%
O=S(=O)(c1ccc(Cl)cc1)N1CCN(c2nc(-c3ccccc3)nc3ccccc23)CC1	-13.6%
Cc1cc(C)cc(NC(=O)C2CCN(S(=O)(=O)c3c(C)noc3/C=C/c3ccco3)CC2)c1	-20.9%
O=C(C[C@@H]1C/C=C/CC[C@@H](Cc2ccc(F)cc2)C(=O)O[C@@H](c2ccccc2)CNC1=O)NCCO	-11.6%
O=C(CN1CCSCC1)N/N=C/c1ccc(F)c(F)c1	17.9%
O=C(Nc1ccccc1-c1nnn(CC(=O)N2CCCc3ccccc32)n1)c1cccc(Cl)c1	14.4%
O=C(/C=C\c1ccc2c(c1)OCO2)Nc1c2c(nn1-c1ccc(Cl)cc1)CSC2	-13.4%
Cc1ccc(Cn2nnc3sc4c(c3c2=O)CCC(C)C4)cc1 (configuration not stated)	-1.8%
COc1ccc(Nc2oc(/C=C/c3ccc(F)cc3)nc2C#N)cc1	14.8%
COC(=O)c1ccc(NC(=O)CC2C(=O)N(c3ccccc3)C(=O)N2C2CCCC2)cc1 (configuration not stated)	-0.2%
Cc1nc(SCC(=O)NC(=O)NCCC(C)C)c2c(-c3cccs3)csc2n1	-2.2%
COc1cc2ccccc2cc1C(=O)Nc1ccc(CN2CCOCC2)cc1	-7.7%
COc1ccc([N+](=O)[O-])cc1N(CC(O)CN1CCCC1)S(=O)(=O)c1ccc(C)cc1 (configuration not stated)	12.5%
O=C(c1ccncc1)N(c1ccc2oc3c(c2c1)CCCC3)S(=O)(=O)c1cccc([N+](=O)[O-])c1	-11.3%
O=C(O)CCCN1C(=O)C2C3CCC(O3)C2C1=O (configuration not stated)	-5.4%
CCOc1cccc2c1OC1(CCCCC1)N1N=C(c3cccnc3)CC21 (configuration not stated)	-22.9%
Cn1cc(CCC(=O)NC2CC2)c2ccccc21	-0.7%
O=C(NCCc1ccccc1)c1cccc2c1C(=O)c1ccc(N3CCOCC3)cc1S2(=O)=O	6.5%
CC(C)(C)C(=O)Nc1ccc(N=Nc2ccccc2)cc1	12.5%
COC(=O)c1c(NC(=O)CN2CCC3(O)CCCCC3C2c2ccc(F)cc2)sc(C)c1C (configuration not stated)	-1.4%
O=C(NO)c1ccccc1O	-9.9%
O/C(=C\c1nc2ccccc2[nH]1)c1cccs1	?
Cc1cc(N2CCC(C)CC2)nc(SCC(=O)c2ccccc2)n1	1.0%
CCCCCCCCNS(=O)(=O)CCNCc1ccc(OC)cc1	-2.5%
CCN(CC(=O)N1CCOCC1)S(=O)(=O)c1ccc(F)cc1	18.1%
CCn1c(SCC(=O)OCc2ccccc2)nc2c1c(=O)n(C)c(=O)n2C	-16.5%
CCn1ccnc1CN(C)Cc1cn[nH]c1-c1ccc(OC)c(F)c1	-6.4%
Cc1cc(C)c2c(=O)n(CC(=O)Nc3ccc(Br)c(C)c3)sc2n1	?
O=C(OCC(=O)c1c[nH]c2ccccc12)c1cccc(S(=O)(=O)N2CCCCCC2)c1	-11.3%
COc1ccccc1CNC(=O)CCS(=O)(=O)c1cccs1	18.6%
CCNc1nc(NCC)nc(N/N=C/c2ccc(Br)cc2)n1	1.1%
CCCCN(C)CCCNC(=O)/C=C1\Sc2ccccc2NC1=O	-13.1%
O=C(O)C1CCN(C(=O)CCc2ccccc2)CC1	-1.5%
O=C(c1ccc(S(=O)(=O)N2CCOCC2)cc1)N1CCN=C1SCc1cccnc1	-13.1%
COc1ccc(NC(=O)N(CCC(C)C)C(C)c2cccs2)c(OC)c1 (configuration not stated)	10.0%
Cc1noc(C)c1-c1ccc2ncnc(NCC3CCCCN3C)c2c1 (configuration not stated)	-21.7%
O=C(NC(=S)Nc1ccc(NC(=O)c2cccs2)cc1)c1ccc([N+](=O)[O-])cc1	-12.1%
COc1ccc(OC)c(/C=C2\N=C(c3ccccc3)OC2=O)c1	-1.3%
C=CCNC(=S)NNC(=O)CC12CC3CC(CC(C3)C1)C2	8.4%
O=C(NCCOc1ccccc1-c1ccccc1)c1ccco1	-7.5%
O=C(Cc1ccsc1)N1CCN(S(=O)(=O)c2ccccc2F)CC1	-2.3%
Cc1ccc(-n2c(SCC(N)=O)nnc2-c2ccc(S(=O)(=O)N3CCCCC3)cc2)c(C)c1	-5.8%
O=C(CN1CCC(NC(=O)c2ccc(F)cc2)CC1)NCc1ccccc1F	-2.8%
Cc1cc(CN(C)C(=O)CC2C(=O)NCCN2Cc2ccc(F)c(F)c2)on1 (configuration not stated)	-14.8%
Cc1ccc2nc(SCC(=O)Nc3cc(C)on3)nc(=O)n2c1	-5.0%
Nc1ccc(C(=O)N/N=C\c2ccc(OC(=O)c3ccccc3Cl)cc2)cc1	-24.6%
CC1CCC(NS(=O)(=O)c2ccc(N3CCCC3=O)cc2)CC1 (configuration not stated)	-1.8%
COc1ccc(CNC(=O)c2cc3c(-c4ccccc4F)nn(C)c3s2)cc1	-3.4%
CCCCN1C(=O)C(O)(c2c(C)[nH]c3ccccc23)c2ccccc21 (configuration not stated)	2.0%
O=C(CSc1ccc(Cl)cc1)Nc1ccccc1N1CCN(C(=O)c2ccccc2)CC1	-9.0%
COc1ccc(CCN(C)C(=O)c2ccc3c(=O)n4c(nc3c2)CCCCC4)cc1OC	-3.0%
Cc1cc(C)c(C(=O)CC2(O)C(=O)Nc3ccccc32)cc1C (configuration not stated)	-3.7%
C/C(Nc1ccc(C)cc1)=C(/C#N)C(N)=O	7.2%
CCCCc1c(O)nc(SC2CC(=O)N(c3ccc(C(=O)OCC)cc3)C2=O)[nH]c1=O (configuration not stated)	-28.6%
Cc1ccc(C)c(N2CCN(C(=O)c3ccc(CSc4nc5ccncc5[nH]4)cc3)CC2)c1	18.1%
O=C(O)CCC(=O)N1CCc2cc(S(=O)(=O)NCc3ccc(F)cc3)ccc21	2.9%
COc1ccc(/C=C/C=C2\N=C(SC)SC2=O)cc1	-22.1%
COc1cccc(OCC(=O)NNC(=O)CCc2ccccc2)c1	21.6%
CC1CCCCN1C(=O)CSc1nc2ccsc2c(=O)n1Cc1ccccn1 (configuration not stated)	7.6%
Nc1nn(-c2ccccc2)c(N)c1N=Nc1ccccc1F	-17.0%

A second format for 6 compounds above.
compound | VDR inhibitor
Cc1cc(C)c(C(=O)CC2(O)C(=O)Nc3ccccc32)cc1C (configuration not stated) | -3.7%
C/C(Nc1ccc(C)cc1)=C(/C#N)C(N)=O | 7.2%
CCCCc1c(O)nc(SC2CC(=O)N(c3ccc(C(=O)OCC)cc3)C2=O)[nH]c1=O (configuration not stated) | -28.6%
Cc1ccc(C)c(N2CCN(C(=O)c3ccc(CSc4nc5ccncc5[nH]4)cc3)CC2)c1 | 18.1%
O=C(O)CCC(=O)N1CCc2cc(S(=O)(=O)NCc3ccc(F)cc3)ccc21 | 2.9%
COc1ccc(/C=C/C=C2\N=C(SC)SC2=O)cc1 | -22.1%

Other records follow:
SMILES	VDR inhibitor
O=C(Nc1ccc(Br)c2cccnc12)c1ccc(Cn2cc([N+](=O)[O-])cn2)o1	-12.0%
CC(=O)C1=C(O)C(=O)N(Cc2cccnc2)C1c1ccc(O)cc1 (configuration not stated)	-1.5%
COc1ccc(/C=N/Nc2nnc(Cc3ccccc3)c(=O)[nH]2)cc1	-1.4%
Cc1cc(NC(=O)CSc2nc(N)c(NC(=O)c3ccccc3F)c(=O)[nH]2)no1	-5.6%
CN(N)C(=S)Nc1ccc(Cl)cc1	-3.1%
Cc1nc2ccccc2c2oc(C(=O)NCCCN3CC(C)CC(C)C3)cc12 (configuration not stated)	9.6%
Cc1cc(C)n2nc(CNS(=O)(=O)c3ccccc3)nc2n1	0.6%
CC[C@H](C)[C@@H](C(=O)N1CCNCC1)n1cc([C@@H](N)CO)nn1	1.7%
C[C@]12C=CC(=O)C=C1CC[C@@H]1[C@H]3C[C@@H](O)[C@](O)(C(=O)CO)[C@@]3(C)C[C@H](O)[C@]12F	5.6%
Cc1ccccc1Cn1cc(CCC(=O)NCc2cccc(Br)c2)c2ccccc21	16.3%
Cc1cc(O)c2c(-c3ccccc3)cc(=O)oc2c1	-8.0%
O=C(Nc1cccc2cccnc12)OC(Cl)(Cl)Cl	9.9%
COC(=O)CC1C(=O)NCCN1C(=O)NC1CCCCC1 (configuration not stated)	-10.4%
Cc1ccc(OCCN2CCCC2)cc1	?
CC(=O)Nc1ccc(NC(=O)C(C)OC(=O)CCSc2ccccc2Cl)cc1 (configuration not stated)	-2.0%
NC1=NC(=O)CC(C(=O)NCCc2ccccc2)S1 (configuration not stated)	-3.9%
COC(=O)c1ccc(NC(=O)c2nn(C)c3c2COc2ccccc2-3)cc1	-1.1%
O=C(CCCn1c(=S)[nH]c2ccccc2c1=O)NC1CCCCC1	5.5%
Cc1cccc(CN2C(=O)c3ccccc3Sc3ccc(C(=O)NCCN4CCOCC4)cc32)c1	6.6%
COc1ccc(OC)c(NC(=O)c2cccc3c2C(=O)N(C2CCCCC2)C3)c1	22.4µM*!

Rewritten as labelled records: four of the compounds above
COC(=O)c1ccc(NC(=O)c2nn(C)c3c2COc2ccccc2-3)cc1
  VDR inhibitor: -1.1%

Cc1nc2ccccc2c2oc(C(=O)NCCCN3CC(C)CC(C)C3)cc12 (configuration not stated)
  VDR inhibitor: 9.6%

CC(=O)Nc1ccc(NC(=O)C(C)OC(=O)CCSc2ccccc2Cl)cc1 (configuration not stated)
  VDR inhibitor: -2.0%

CC(=O)C1=C(O)C(=O)N(Cc2cccnc2)C1c1ccc(O)cc1 (configuration not stated)
  VDR inhibitor: -1.5%

(continued)
SMILES	VDR inhibitor
COc1ccc(C(C)(C)NC(=O)C2CCC(=O)N(C3CC3)C2)cc1OC (configuration not stated)	11.4%
O=S(=O)(NCc1ccc2c(c1)OCO2)c1ccc(F)cc1	1.7%
COC(=O)c1cccc(N2C(=O)C3C4C=CC(CC4)C3C2=O)c1 (configuration not stated)	12.5%
NS(=O)(=O)c1cccc(NC(=O)c2ccc(S(=O)(=O)N3CCCCCC3)cc2)c1	-1.8%
Cc1cc(NCCCN)nc(-c2ccccc2O)n1	-9.6%
CCOC(=O)c1c(NC(=O)CSc2nnc(C)s2)sc2c1CCCCC2	-24.3%
Fc1ccc(-n2cc(-c3ccccc3)c3c(NCCc4ccccc4)ncnc32)cc1	-5.2%
CCC(C)c1ccc(NC(=S)Nc2ccc(OC)cc2)cc1 (configuration not stated)	?
O=C(NCCCN1CCOCC1)c1cccc(S(=O)(=O)N2CCN(c3ccccc3)CC2)c1	-13.0%
CC(=O)c1cccc(NC(=O)CN2C(=O)NC(C)(C)C2=O)c1	-9.0%
O=C1C2C3C=CC(CC3)C2C(=O)N1c1ccccc1F (configuration not stated)	-5.6%
CCOc1ccc(NC(=O)N2CCOc3ccccc32)cc1	10.9%
CC(C)(C)OC(=O)N1Cc2ccccc2C[C@H]1C(=O)O	-2.1%
COc1cccc(C(=O)Nc2c3c(nn2-c2ccccc2C)CS(=O)C3)c1OC (configuration not stated)	8.4%
O=C(NCCN1CCN(c2ccccc2F)CC1)C1CC(=O)N(C2CCCC2)C1 (configuration not stated)	8.5%
CCCCc1ccc(NC(=S)NCCN2CCOCC2)cc1	-1.5%
C/C(N)=C(/C#N)C(=O)COC(=O)c1cc(-c2ccc(Br)cc2)nc2ccccc12	3.0%&6.1%
CCc1cccc(C)c1NC(=O)C1CCCN(S(=O)(=O)c2cccc3nsnc23)C1 (configuration not stated)	-3.3%
COCCn1c(SCC(=O)N2CCOCC2)nc2c(c1=O)SCC2	-27.0%
CCOc1ccccc1NC(=O)c1cc(SC)ccc1Cl	-17.3%
CNC(=O)c1ccc(Nc2nnc(-c3ccc(O)cc3)c3ccccc23)cc1	-2.1%
C=CCC[C@H](Cc1ccc(F)cc1)C(=O)OC[C@@H](Cc1c[nH]c2ccccc12)NC(=O)[C@@H](CC=C)CC(=O)NCCO	-2.9%
O=C(NC(=S)Nc1ccc(S(=O)(=O)Nc2nccs2)cc1)c1ccc(F)cc1	-9.0%
Cc1cccc(NC(=O)CCn2cnnn2)c1C	4.2%
COCCN(Cc1cc2ccc(C)c(C)c2nc1Cl)C(=O)N1CCOCC1	-6.1%
CCC(C)(C)n1nnnc1C(c1ccc(OC)c(OC)c1)N1CCN(c2ccccc2)CC1 (configuration not stated)	16.3%
CC1(c2ccccc2)CC(C)(C)N(C(=O)C2CCCO2)c2ccccc21 (configuration not stated)	-11.7%
O=c1[nH]c2ccccc2c(O)c1-[n+]1ccccc1	-11.8%
Cc1c(Cl)c(C(=O)N2CCCCCC2)nn1C	-14.3%
O=c1c2c(-c3ccc(Cl)cc3)ccnc2[nH]n1-c1ccccc1	-3.6%
Cc1ccc2c(c1)c1c3n2CCN(C(=O)c2ccc(C(F)(F)F)cc2)C3CCC1 (configuration not stated)	-8.0%
O=C(CCS(=O)(=O)c1nc(-c2cccs2)cc(C(F)(F)F)n1)Nc1ccc(OC(F)(F)F)cc1	14.1µM*
O=C(CCn1c(=O)oc2ccccc21)Nc1ccc(C(=O)O)cc1	-1.0%
CCC(=O)Nc1cc(C(=O)O)ccc1S(=O)(=O)c1ccc(C)cc1	7.9%
CCCCN1CC(c2nc3ccccc3n2CCCCOc2ccc(C)c(C)c2)CC1=O (configuration not stated)	9.2%
Nc1nc(SCC(=O)N2CCCCC2)[nH]c(=O)c1NC(=O)c1cccs1	2.0%
O=C(CSc1nnc(-c2ccccc2Cl)o1)N1CCCc2ccccc21	-13.5%
Cc1c(NC(=S)NC(=O)c2ccccc2Cl)c(=O)n(-c2ccccc2)n1C	12.0%
Cc1noc(/C=C/N(C)C)c1S(=O)(=O)N1CCCC(C(=O)N2CCc3ccccc32)C1 (configuration not stated)	-23.2%
COc1cccc(N2C(=O)CSC23C(=O)N(CC(=O)Nc2cccc(Cl)c2)c2ccccc23)c1 (configuration not stated)	7.4%
O=C(Nc1cc(Cl)cc(Cl)c1)c1ccc2c(c1)N(Cc1cccc(Cl)c1)C(=O)c1ccccc1S2=O (configuration not stated)	18.2%

High-throughput results from PubChem.

These rows are one share of the data. The share of hits here may be higher or lower than overall.
